# Bioassay records deposited in PubChem BioAssay by National Center for Advancing Translational Sciences (NCATS).
# VDR inhibitor = vitamin D3 receptor (human) inhibition; AID 504847; VDR-SRC2-3 peptide fluorescence polarization, 2 h; Potency, µM, inactives show max response, negative = inhibition, most hits filed as inhibitors; P11473; 0.93% of 400,000 active; active = well fitted inhibition curve with a large enough effect; inconclusive = small, poorly fitted or top-dose-only effect, or another doubt; inactive = no such curve, though single readings can be large or run the other way; note: series mostly up to about 120 µM
# Target sequence (P11473 whole entry, looked up): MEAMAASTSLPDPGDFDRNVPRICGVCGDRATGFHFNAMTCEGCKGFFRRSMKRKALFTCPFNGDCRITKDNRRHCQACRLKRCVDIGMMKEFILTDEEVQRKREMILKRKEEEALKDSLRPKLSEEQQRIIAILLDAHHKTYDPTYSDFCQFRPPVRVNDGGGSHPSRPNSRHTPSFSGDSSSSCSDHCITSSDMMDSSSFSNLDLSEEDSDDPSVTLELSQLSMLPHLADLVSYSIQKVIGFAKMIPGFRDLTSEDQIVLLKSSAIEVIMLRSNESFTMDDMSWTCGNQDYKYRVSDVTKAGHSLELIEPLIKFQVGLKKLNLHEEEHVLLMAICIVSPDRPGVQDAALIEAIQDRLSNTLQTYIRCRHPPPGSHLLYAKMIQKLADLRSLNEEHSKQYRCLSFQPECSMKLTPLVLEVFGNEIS
#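 After 23 nl compound addition and a short centrifugation, plates sat for 2 hours at ambient temperature; polarization of fluorescence then indicated loss of VDR binding to peptide SRC2-3.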
# Numbers without * were called inactive; u = inconclusive; & = joins results of further samples. % is set by controls: 0 for no effect and ±100 for the full control effect; potency is the fitted concentration of half-maximal effect. A portion of the library; the hit share may differ from the screen's.
SMILES,VDR inhibitor
CC1CCC(NC(=O)CN2C(=O)NC3(CCCCCC3)C2=O)CC1 (stereo unspecified),14%
O=C(O)c1cc(NC(=O)c2ccccc2[N+](=O)[O-])ccc1O,17%
CC1=C(C(=O)Nc2ccccc2)C(c2ccccc2[N+](=O)[O-])NC(=O)N1 (stereo unspecified),1%
Cc1ccc(COc2ccc(-c3cc(C(F)(F)F)n4nc(C)cc4n3)cc2)cc1,6%
COc1ccc(SCC(c2ccccc2)N2CCN(CC(C)C)CCC2=O)cc1 (stereo unspecified),u
CCc1ccccc1NC(=O)CSc1ncc2c(n1)-c1ccccc1N(C)S2(=O)=O,1%
CN1CCCC(C#CC(O)(c2ccccc2)c2ccccc2)C1 (stereo unspecified),1%
CCC[C@@H]1CCCC/C=C\CCCC(=O)OCCN1C(=O)OC(C)(C)C,-16%
CCN(CC)C(=O)CC(c1cc(OC)c(OC)c(OC)c1)c1c(OC)cc(OC)c2ccc(=O)oc12 (stereo unspecified),-6%&0%
Cn1c(=O)oc2cc(S(=O)(=O)Nc3ccccc3F)ccc21,-12%
COc1cccc(C(=O)NCCC2=CCCCC2)c1OC,6%
CC(C)NS(=O)(=O)c1ccc(OCC(=O)Nc2ccc(F)cc2F)cc1,-5%
Cc1ccc2c(c1)C(c1ccccc1)N(C(=O)Cc1ccc(F)cc1)CC(=O)N2 (stereo unspecified),-21%
CCCCN(CCCC)CC(O)COc1ccccc1C(=O)Nc1ccccc1 (stereo unspecified),-1%
O=C(Nc1cccc(C(F)(F)F)c1)c1cc2c(s1)-c1ccccc1OC2,-4%
CCc1ccc(NC(=O)N2CCN(Cc3nc4ccc(C)cc4o3)CC2)cc1,0%
Cc1cccc(NC(=O)Nc2ccc(C#N)cc2)n1,5%
Cc1ccc(O)c(N=Nc2ccc(S(=O)(=O)N3CCOCC3)cc2)c1,6%
Cn1c(=O)n(Cc2ccccc2Cl)c(=O)c2c1[nH]c(=S)n2C,-23%
COc1ccc(-c2coc3cc4oc(=O)cc(-c5ccccc5)c4cc23)cc1F,-17%
CC12CCC(C(=O)Nc3ccc(Br)cn3)(OC1=O)C2(C)C (stereo unspecified),2%
COC(=O)CCSCC(=O)N1N=C(c2ccc(OC)cc2)CC1c1cccc(OC)c1OC (stereo unspecified),-7%
O=C1N(c2ccccc2)C2CS(=O)(=O)CC2N1c1ccc(Cl)c(Cl)c1 (stereo unspecified),1%
COc1ccc(-c2ccc(NC(=O)c3ccco3)cc2)nn1,-11%
CCC(Sc1ncccc1C(=O)OCCN1CCCC1=O)C(=O)NCc1ccco1 (stereo unspecified),-4%
Cc1ccc(C(=O)n2c(N)nc3ccccc32)cc1,5%
COc1ccc2c(-c3ccccc3)cc(SCC(=O)NC(N)=O)nc2c1,5%
COc1ccccc1NC(=O)c1c([N+](=O)[O-])c(C(C)(C)C)nn1C,-7%
CC[C@@]1(C(=O)OC)N[C@H](CN(C)C(=O)c2ccc(C)cc2)[C@@H]2C(=O)N(Cc3ccccc3)C(=O)[C@@H]21,-11%
O=C(Cc1ccccc1)N1CCN(C(=O)c2cccs2)CC1,-5%
O=C(NCCS(=O)(=O)c1ccc(Cl)cc1)c1ccc(F)cc1,u
Cc1ccc(Oc2nnc(-c3ccccc3)c3ccccc23)cc1,-16%
OCCNc1nc(OCC(F)(F)F)nc(N2CCN(C34CC5CC(CC(C5)C3)C4)CC2)n1,2%
COc1ccc(/C(C)=N/Nc2ccc(C(=O)O)cc2)c(OC)c1,-10%
Cn1cc(CNC(=O)Nc2ccc3c(c2)OCO3)cn1,-1%
CS(=O)(=O)c1ccc(Cl)c(NC(=O)COC(=O)COc2ccc3c(c2)CCC3)c1,2%
COc1ccc(C(=O)Nc2c(N)nc(SCC(=O)N3CCC(C)CC3)[nH]c2=O)cc1OC,-4%
Cc1cc(NC(=O)CSc2ccc3nnc(CCNC(=O)c4ccccc4)n3n2)no1,1%
COc1cccc(NC(=O)CCc2nc3c(C)nn(-c4ccc(C)cc4)c3n(C)c2=O)c1,1%
O=C(Nc1ccc2c(c1)C(=O)NC2=O)c1cccc(C(F)(F)F)c1,12%
Cc1n[nH]c(C)c1S(=O)(=O)N1CCCC(C(=O)NC2CCCCC2)C1 (stereo unspecified),1%
c1ccc(NCCCNc2ccccc2)cc1,-2%
CCN(CC)c1cc(C)c2cc(NC(=O)c3ccccc3OC)ccc2n1,7%&-6%
CC1CCc2cc(F)cc3c2N1C(=O)C(C(=O)Nc1cnccn1)C3=O (stereo unspecified),-8%
COc1ccc(-c2nc3cnc(Oc4cccc(Cl)c4)nc3n(C[C@H]3CCCO3)c2=O)cc1,-18%
CC(=O)c1ccc(NC(=O)Nc2ccc3c(c2)nc(C)n3C)cc1,-3%
Cc1cc(-c2nnc(SCC(=O)c3ccc4c(c3)OCCO4)o2)no1,1%
COc1ccc(NC(=O)Nc2ccc(F)cc2)c(C)c1,-18%
CC(/C=C1\SC(=S)N(NS(=O)(=O)c2ccc(C)cc2)C1=O)=C\c1ccccc1,u
CCc1cccc(C)c1NC(=O)Nc1c(Br)cnn1C,-7%
COc1cccc2cc(-c3nnc(SCC(=O)Nc4cc(C(F)(F)F)ccc4Cl)n3N)oc12,-4%
CCOc1ccc(CCNC(=O)CS(=O)Cc2nc(-c3ccc(OC)c(OC)c3)oc2C)cc1OCC (stereo unspecified),-10%
CC(NS(=O)(=O)c1ccc(Br)cc1)C(N)=O (stereo unspecified),17%
Cc1ccc(S(=O)(=O)N2CCN(C3CC(=O)N(Cc4ccccc4)C3=O)CC2)cc1C (stereo unspecified),11%
CC(=O)N1CCN(C(=O)c2ccc(Cl)c(S(=O)(=O)N3CC(C)OC(C)C3)c2)CC1 (stereo unspecified),0%
Cc1cc(C)nc(SCC(=O)Nc2nc(-c3ccccc3)c(-c3ccccc3)o2)n1,1%
C[C@@H](CSc1ccc(Br)cc1)CN1CC[C@H](O)CCC1=O,-15%
COc1ccc(NC(=O)CN(C)C(=O)/C=C/c2cn(Cc3ccccc3)nc2-c2cccnc2)cc1,-13%
O=c1[nH]c(CSc2ncccn2)nc2c1cnn2-c1ccccc1,-14%
CCCC(=O)NCCc1ccc(F)cc1,17%
# The list continues.
SMILES,VDR inhibitor
CC(=O)c1cccc(NC(=O)NCc2cccnc2)c1,-8%
CC1CCN(C(=O)CN(c2ccccc2)S(=O)(=O)N(C)C)CC1,19%
CC1Cc2ccccc2N1C(=O)CSc1nnnn1Cc1ccccc1 (stereo unspecified),-24%
O=C(Cn1nnc2c(sc3nc4c(c(-c5ccccc5)c32)CCC4)c1=O)c1ccccc1,-3%
CCOC(=O)N1CCN(S(=O)(=O)c2ccc3c(c2)C(C)C(=O)N3)CC1 (stereo unspecified),-4%
COc1cc(Cl)c(C)cc1NC(=O)CCc1c(C)nc2c3cccnc3nn2c1C,1%
COc1ccc(OC)c(N2C(=O)C(Cl)=C(N3CCCCC3)C2=O)c1,9%
COc1ccc2oc(=N)c(C(=O)Nc3ccccc3)cc2c1,u
Cc1csc(NC(=O)CCc2nc3ccccc3s2)n1,-11%
CCOC(=O)C1CCN(Cc2c(C(=O)N3CCOCC3)nc3c(C)cccn23)CC1,9%
CCN(CCCNC(=O)Cn1ncc2c3ccccc3n(C)c2c1=O)Cc1ccccc1,8%
Cn1c(C(=O)N2CCCCCC2)cc2c(=O)n(C)c3ccccc3c21,-10%
CCc1c(C)[nH]c2c1C(=O)[C@H](CN1CCOCC1)CC2,-5%
Cc1cnc(C(=O)N2CCCC(N3CCN(c4ccccc4C)CC3)C2)cn1 (stereo unspecified),-15%
CCCCc1nn2c(=O)cc(COC(=O)c3ccc(NC(=O)c4ccccc4Cl)cc3)nc2s1,10%
OC(COc1cccc2ccccc12)CN1CCN(c2cccc(Cl)c2)CC1 (stereo unspecified),-25%
Oc1ccc(/C=N/Nc2nc(N3CCCCCC3)nc(N3CCCCCC3)n2)c(O)c1,7%
O=C(O)/C=C/C(=O)Nc1ccc(OC(F)(F)F)cc1,-2%
Cc1cc(-n2c(SCC(=O)Nc3ccc(Br)cc3)nc3n[nH]c(C)c3c2=N)ccc1Cl,8%
CC(NC(=O)CSc1nc2ccccc2n1CCC#N)c1ccc(F)cc1 (stereo unspecified),13%

# Exported with the structure last: two of the compounds above.
VDR inhibitor	SMILES
11%	Cc1ccc(S(=O)(=O)N2CCN(C3CC(=O)N(Cc4ccccc4)C3=O)CC2)cc1C (stereo unspecified)
0%	CC(=O)N1CCN(C(=O)c2ccc(Cl)c(S(=O)(=O)N3CC(C)OC(C)C3)c2)CC1 (stereo unspecified)

# (further entries)
SMILES,VDR inhibitor
COc1ccccc1CCC(=O)Nc1nc2ccccc2[nH]1,7%
Cc1ccc(S(=O)(=O)N(C)C(C)CCc2ccco2)cc1 (stereo unspecified),u
COc1cc(/C=N/NC(=O)CNC(=O)/C=C/c2ccco2)cc(OC)c1OC,16%
Cc1n[nH]c(=O)c2c(NC(=O)CSc3nn(-c4ccc(F)cc4)c(=S)s3)oc(C)c12,u
COc1ccc(S(=O)(=O)N2CCCc3ccccc32)cc1OC,-9%
Cc1ccc2nc(SCC(=O)Nc3ccc4c(c3)OCCO4)[nH]c2c1,16%
CN1c2ccccc2C(=O)NC1c1ccc(Cl)cc1 (stereo unspecified),-10%
Cn1c(COc2ccccc2)nnc1SCCC(=O)Nc1ccccc1,-11%
CNC(=O)c1ccc(NC(=O)c2cc(S(=O)(=O)N(C)C)ccc2N2CCCC2)cc1,-6%
Cc1ccc(NS(=O)(=O)c2ccc(/C=C/C(=O)O)cc2)cc1Cl,-15%
Cc1c(C(c2ccc(N(C)C)cc2)c2c(C)n(C)n(-c3ccccc3)c2=O)c(=O)n(-c2ccccc2)n1C,6%
S=c1[nH]nc(-c2ccccn2)n1/N=C/c1cccs1,2%
CCCCN(C)Cc1c(O)ccc2c(=O)c(-c3ccccc3OC)coc12,-2%
CCCc1cc(=O)[nH]c(SCC(=O)Nc2sc3c(c2C(N)=O)CCCC3)n1,5%
O=C(Nc1ccc2c(c1)CCCN2C(=O)c1cccs1)c1cccc(F)c1,-16%
Cc1ccc(CNC(=O)c2ccc(N3CCC4(CC3)CC(c3ccccc3)=NO4)c(N)c2)cc1,3%
COc1ccc(S(=O)(=O)N(C)C[C@H]2Oc3c(NC(=O)Nc4c(C)noc4C)cccc3C(=O)N([C@H](C)CO)C[C@@H]2C)cc1,3%
COc1ccc(C(=O)CSC2=C(C#N)C3(CCCCC3)C(C#N)=C(N)N2)cc1,13%
COCC(=O)N1CCC2(CCN(Cc3nccs3)CC2)CC1,6%
COc1ccc(CCNC(=O)CCCCCN2C(=O)c3ccccc3C2=O)cc1,4%

# Quoted from the entries so far, two compounds:
SMILES,VDR inhibitor
COCC(=O)N1CCC2(CCN(Cc3nccs3)CC2)CC1,6%
COc1ccc(CCNC(=O)CCCCCN2C(=O)c3ccccc3C2=O)cc1,4%

# Looked up above:
# `CN1c2ccccc2C(=O)NC1c1ccc(Cl)cc1` (stereo unspecified) in VDR inhibitor has -10%
# `COc1ccc(CCNC(=O)CCCCCN2C(=O)c3ccccc3C2=O)cc1` in VDR inhibitor has 4%
# `Cc1ccc(CNC(=O)c2ccc(N3CCC4(CC3)CC(c3ccccc3)=NO4)c(N)c2)cc1` in VDR inhibitor has 3%

# Arranged by value in VDR inhibitor (lowest first): 6 from the list above.
SMILES,VDR inhibitor
Cc1ccc(NS(=O)(=O)c2ccc(/C=C/C(=O)O)cc2)cc1Cl,-15%
Cn1c(COc2ccccc2)nnc1SCCC(=O)Nc1ccccc1,-11%
COc1ccc(S(=O)(=O)N2CCCc3ccccc32)cc1OC,-9%
COc1ccc(S(=O)(=O)N(C)C[C@H]2Oc3c(NC(=O)Nc4c(C)noc4C)cccc3C(=O)N([C@H](C)CO)C[C@@H]2C)cc1,3%
COc1ccc(CCNC(=O)CCCCCN2C(=O)c3ccccc3C2=O)cc1,4%
COCC(=O)N1CCC2(CCN(Cc3nccs3)CC2)CC1,6%

# New compounds follow
SMILES,VDR inhibitor
CC(=O)N1CCN(S(=O)(=O)c2cccc(C(=O)OCC(=O)NC(=O)c3cccn3C)c2)CC1,0%
O=C(COc1ccc(Br)cc1)NNC(=S)NC(=O)c1ccccc1[N+](=O)[O-],-14%
C=CCNc1cc(C(F)(F)F)nc(-c2ccccn2)n1,12%
CSCCC(NC(=O)c1cccc(S(=O)(=O)N2CCN(C(C)=O)CC2)c1)c1nc2ccccc2[nH]1 (stereo unspecified),12%
Fc1cccc(Cc2noc(CN3CCC(c4ccncc4)CC3)n2)c1,-11%
CCOC(=O)C(C(=O)OCC)N(C#N)c1nc(OC)nc(N(C)C)n1,-14%
O=C1C=C(c2cc(F)ccc2F)C[C@@H](c2ccc(Cl)cc2)C1,2%
CN(C)c1ncc2nc(CCc3ccccc3)c(=O)n(C[C@H]3CCCO3)c2n1,u
COc1ccc(OC)c(S(=O)(=O)N(C)CC(=O)N2CCN(c3ccccc3F)CC2)c1,4%
Cc1cc(C(=O)OCC(=O)NC(=O)C2CCCCC2)ccc1[N+](=O)[O-],-11%
COc1ccc(C(=O)OCCN2C(=O)c3ccccc3C2=O)cc1OC,-1%
O=C(NC1CCCC1)NS(=O)(=O)c1ccccc1Cl,-16%
COc1ccc(-c2cc([N+](=O)[O-])ccc2OCC(=O)N(C)CC(=O)Nc2ccc(C)cc2)cc1,6%
COc1ccccc1OCC(=O)Nc1cccc(N(C)S(C)(=O)=O)c1,-5%
Cc1cccc(N(C(=O)c2nsc(Cl)c2Cl)C(C(=O)NC2CCCC2)c2ccc(O)cc2)c1C (stereo unspecified),-26%
Cn1cnc([N+](=O)[O-])c1Oc1cccc(O)c1,u
Cc1c(OCc2nn[nH]n2)ccc2c3c(c(=O)oc12)CCC(C)C3 (stereo unspecified),2%
COC(=O)c1cn(CCOc2ccc(C)cc2)c2ccccc12,7%
O=C(C1CCCN(S(=O)(=O)c2cccs2)C1)N1CCN(c2ccccc2F)CC1 (stereo unspecified),-11%
Cc1ccc(NC(=O)CN(C)C(=O)c2ccc(OCc3c(C)noc3C)cc2)cc1,-12%
O=C1C2=C(Nc3ccccc3SC2c2ccc(Cl)c(Cl)c2)c2ccccc21 (stereo unspecified),-10%
